# FGF22 binding – binders of recombinant human FGF22 by thermal shift; calls only at 9.99 µM; SYPRO orange fluorescence; percent of sucrose octasulfate shift, DMSO zero; Q9HCT0; 1.5% of 340,000 active;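 active means melting point raised past a set limit in the mean and every replicate; three in four hits are not shown here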
# Target sequence (Q9HCT0 whole entry, looked up): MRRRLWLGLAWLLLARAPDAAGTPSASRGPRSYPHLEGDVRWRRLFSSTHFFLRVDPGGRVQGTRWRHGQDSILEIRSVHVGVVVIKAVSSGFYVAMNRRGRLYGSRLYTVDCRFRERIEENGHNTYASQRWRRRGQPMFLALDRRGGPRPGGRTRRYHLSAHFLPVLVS
# Calls only; i = inactive. Only part of the results is shown. The share of hits here may be higher or lower than overall.
SMILES,FGF22 binding
C[C@H]1CN([C@@H](C)CO)C(=O)c2cccc(NC(=O)Nc3ccc(F)cc3)c2O[C@@H]1CN(C)S(=O)(=O)c1ccc(Cl)cc1,i
C[C@@H]1CCCCO[C@@H](CN(C)S(=O)(=O)c2ccc(F)cc2)[C@H](C)CN([C@@H](C)CO)C(=O)c2cc(NS(=O)(=O)c3ccc(F)cc3)ccc2O1,i
COC(=O)C[C@H]1CC[C@H]2[C@H](COc3ccc(NC(=O)Nc4cccc(F)c4)cc3C(=O)N2C)O1,i
O=C(C[C@@H]1CC[C@H]2[C@@H](COC[C@H](O)CN2S(=O)(=O)c2cccc(Cl)c2)O1)Nc1ccccc1,i
Cc1noc(C)c1NC(=O)N(C)C[C@H]1Oc2ccc(NC(=O)CCCCCC(=O)Nc3ccccc3N)cc2C(=O)N([C@@H](C)CO)C[C@@H]1C,i
C[C@@H]1CN([C@H](C)CO)S(=O)(=O)c2ccc(-c3ccncc3)cc2O[C@@H]1CN(C)CC1CC1,i
C[C@@H]1CN([C@@H](C)CO)C(=O)c2cc(C#CCN(C)C)cnc2O[C@@H]1CN(C)C(=O)c1ccc2c(c1)OCO2,i
C[C@@H]1CCCCO[C@@H](CN(C)S(=O)(=O)c2ccc(Cl)cc2)[C@@H](C)CN([C@H](C)CO)C(=O)c2cc(NC(=O)Nc3ccc4c(c3)OCO4)ccc2O1,i
CO[C@H]1CN(C)C(=O)c2ccc(NC(=O)C3CCC3)cc2OC[C@H](C)N(Cc2cccnc2)C[C@H]1C,i
Cc1ccc(S(=O)(=O)N(C)C[C@@H]2OCCCC[C@@H](C)Oc3ccc(NC(=O)CCCCCC(=O)Nc4ccccc4N)cc3C(=O)N([C@H](C)CO)C[C@@H]2C)cc1,i
CO[C@@H](C(=O)N(C)C[C@H]1OCc2ccccc2-c2ccccc2C(=O)N([C@@H](C)CO)C[C@@H]1C)c1ccccc1,i
C[C@H](O)C#Cc1ccc2c(c1)O[C@H](CN(C)Cc1ccncc1)[C@@H](C)CN([C@H](C)CO)S2(=O)=O,i

# The closing two records of the part before are carried over, then new ones follow:
SMILES,FGF22 binding
CO[C@@H](C(=O)N(C)C[C@H]1OCc2ccccc2-c2ccccc2C(=O)N([C@@H](C)CO)C[C@@H]1C)c1ccccc1,i
C[C@H](O)C#Cc1ccc2c(c1)O[C@H](CN(C)Cc1ccncc1)[C@@H](C)CN([C@H](C)CO)S2(=O)=O,i
Cc1ccccc1S(=O)(=O)N[C@H]1CC[C@@H](CCn2cc(Cc3ccccc3)nn2)O[C@H]1CO,i
C[C@@H]1CN([C@@H](C)CO)S(=O)(=O)c2ccc(-c3cncnc3)cc2O[C@H]1CN(C)C(=O)C1CCCCC1,i
C[C@@H]1CN([C@@H](C)CO)C(=O)c2cc(-c3ccc(F)cc3)cnc2O[C@H]1CN(C)C(=O)CN(C)C,i
COc1ccc2c3c([nH]c2c1)[C@H](CO)N(C)CC31CN(S(=O)(=O)c2ccc(C)cc2)C1,i
Cn1cnc(CCNC(=O)C[C@H]2CC[C@H]3[C@@H](COC[C@@H](O)CN3C(=O)Nc3ccc(Cl)cc3)O2)c1,i
CCC(=O)Nc1ccc2c(c1)C(=O)N(C)[C@@H]1CC[C@H](CC(=O)NCc3ccccc3Cl)O[C@H]1CO2,i
CNC[C@@H]1Oc2c(NS(C)(=O)=O)cccc2C(=O)N([C@H](C)CO)C[C@H]1C,i
CC=Cc1ccc2n(c1=O)C[C@@H]1[C@@H](CO)[C@H](C(=O)Nc3ccc(-c4ccccc4)cc3)[C@H]2N1C (mixture of isomers),i
O=C(NC[C@H]1N[C@H](CO)[C@H]1c1ccccc1)c1ccccc1F,i
CCCC(=O)Nc1ccc2c(c1)C(=O)N(C)C[C@@H](OC)[C@@H](C)CN(C)[C@H](C)CO2,i
CC(=O)Nc1ccc2c(c1)C(=O)N(C)[C@H]1CC[C@H](CC(=O)NCc3ccccc3Cl)O[C@@H]1CO2,i
CC(=O)N(C)C[C@@H]1Oc2cc(C#CC3(O)CCCC3)ccc2S(=O)(=O)N([C@@H](C)CO)C[C@@H]1C,i
C[C@@H]1CN([C@H](C)CO)C(=O)c2cc(-c3cccnc3)cnc2O[C@@H]1CN(C)C(=O)c1cccc(F)c1,i
N#C[C@H]1N[C@@H](CO)[C@H]1c1ccc(C#CC2CCCC2)cc1,i
C[C@@H]1CN([C@H](C)CO)C(=O)Cc2cc(NC(=O)Cn3cnnn3)ccc2O[C@@H]1CN(C)Cc1ccc(C(=O)Nc2ccccc2N)cc1,i
COc1ccc2c3c(n(C)c2c1)[C@@H](CO)N(Cc1ccccc1OC)CC31CN(CC2CC2)C1,i
O=C(C[C@@H]1CC[C@H](NS(=O)(=O)c2ccccc2)[C@@H](CO)O1)NCCN1CCCCC1,i
CCCNC(=O)N(C)C[C@@H]1Oc2ncc(C#CC3(O)CCCC3)cc2C(=O)N([C@@H](C)CO)C[C@@H]1C,i
C[C@@H]1CN([C@@H](C)CO)C(=O)c2cc(NS(=O)(=O)c3ccc(F)cc3)ccc2O[C@@H](C)CCCCO[C@@H]1CN(C)C,i
C[C@H](CO)N1C[C@H](C)[C@@H](CN(C)C(=O)c2cccnc2)Oc2ncc(-c3ccc(F)cc3)cc2C1=O,i
N#C[C@H]1[C@@H](c2ccc(C3=CCCC3)cc2)[C@@H](CO)N1C(=O)c1cccc(F)c1,i
O=C(C[C@@H]1C[C@@H]2c3cc(NC(=O)C4CCC4)ccc3O[C@@H]2[C@@H](CO)O1)NCCN1CCCCC1,i
CCNC(=O)C[C@H]1CC[C@@H]2[C@@H](COc3ccc(NC(=O)c4cccc(OC)c4)cc3C(=O)N2C)O1,i
CCC(=O)N(C)C[C@@H]1Oc2cc(C#CC3CC3)ccc2S(=O)(=O)N([C@@H](C)CO)C[C@H]1C,i

# 7 structures from above, sorted by count of non-hydrogen atoms, high to low:
SMILES,FGF22 binding
Cc1noc(C)c1NC(=O)N(C)C[C@H]1Oc2ccc(NC(=O)CCCCCC(=O)Nc3ccccc3N)cc2C(=O)N([C@@H](C)CO)C[C@@H]1C,i
C[C@H]1CN([C@@H](C)CO)C(=O)c2cccc(NC(=O)Nc3ccc(F)cc3)c2O[C@@H]1CN(C)S(=O)(=O)c1ccc(Cl)cc1,i
CO[C@H]1CN(C)C(=O)c2ccc(NC(=O)C3CCC3)cc2OC[C@H](C)N(Cc2cccnc2)C[C@H]1C,i
CCNC(=O)C[C@H]1CC[C@@H]2[C@@H](COc3ccc(NC(=O)c4cccc(OC)c4)cc3C(=O)N2C)O1,i
COc1ccc2c3c([nH]c2c1)[C@H](CO)N(C)CC31CN(S(=O)(=O)c2ccc(C)cc2)C1,i
O=C(C[C@@H]1CC[C@H](NS(=O)(=O)c2ccccc2)[C@@H](CO)O1)NCCN1CCCCC1,i
N#C[C@H]1[C@@H](c2ccc(C3=CCCC3)cc2)[C@@H](CO)N1C(=O)c1cccc(F)c1,i

# Carrying on:
SMILES,FGF22 binding
Cc1ccc(S(=O)(=O)Nc2ccc3c(c2)C(=O)N([C@@H](C)CO)C[C@H](C)[C@H](CN(C)Cc2ccc4c(c2)OCO4)O3)cc1,i
COc1ccccc1C(=O)N1C[C@@H]2[C@H](c3ccccc31)[C@H](CO)N2C(=O)C1CCOCC1,i
O=C(Nc1ccc(Cl)cc1)N1C[C@H]2[C@@H](c3ccccc31)[C@@H](CO)N2CC1CCCC1,i
OC[C@@H]1[C@H](c2ccc(C#CC3(O)CCCC3)cc2)[C@H]2CN(Cc3cccnc3)CCCCN12,i
COCC(=O)Nc1ccc2c(c1)C(=O)N(C)[C@@H]1CC[C@H](CC(=O)NCCc3ccncc3)O[C@@H]1CO2,i
COc1cc(CCC(C)=O)ccc1OC(=O)c1c(-c2c(F)cccc2Cl)noc1C,i
CO[C@H]1CC[C@@H]2CCOc3c(C#N)cccc3C(=O)N(C)C[C@H](c3ccccc3)CC(=O)N(C)C[C@@H]1O2,i
O=C(Cc1ccccc1)N1CC2(C1)[C@H](c1ccccc1)[C@@H](CO)N2S(=O)(=O)Cc1ccccc1,i
CCC(=O)Nc1ccc2c(c1)OC[C@H](C)N(C(=O)CN1CCOCC1)C[C@H](C)[C@H](OC)CN(C)C2=O,i
C[C@@H]1CN([C@H](C)CO)C(=O)c2cc(-c3cccc(F)c3)cnc2O[C@H]1CN(C)C,i
C[C@@H]1CCCCO[C@H](CN(C)Cc2ccc3c(c2)OCO3)[C@@H](C)CN([C@@H](C)CO)C(=O)c2cc(NS(=O)(=O)c3cccs3)ccc2O1,i
CN1C(=O)c2cc(NS(C)(=O)=O)ccc2OC[C@H]2O[C@H](CC(=O)N3CCOCC3)CC[C@@H]21,i
C[C@H]1CN([C@@H](C)CO)C(=O)c2cc(-c3ccc(C#N)cc3)cnc2O[C@H]1CN(C)C(=O)c1cccnc1,i
CO[C@@H]1CN(C)C(=O)c2ccc(NC(=O)C3CC3)cc2OC[C@@H](C)N(C(=O)c2ccccc2)C[C@@H]1C,i
C[C@@H]1CCCCO[C@@H](CN(C)S(C)(=O)=O)[C@H](C)CN([C@H](C)CO)C(=O)c2cc(NC(=O)Nc3ccccc3)ccc2O1,i
CO[C@H]1CN(C)C(=O)c2cc(NC(=O)C3CC3)ccc2OC[C@H](C)N(C(=O)c2ccccc2F)C[C@@H]1C,i
CCNC(=O)C[C@H]1CC[C@@H]2[C@H](COC[C@@H](O)CN2C(=O)Nc2ccc(Cl)c(Cl)c2)O1,i
CN1C(=O)c2cc(NC(=O)C3CCOCC3)ccc2OC[C@@H]2O[C@H](CC(=O)O)CC[C@H]21,i
CCC(=O)N[C@H]1C=C[C@H](CC(=O)NCc2ccc(OC)cc2)O[C@@H]1CO,i
COc1cccc(CNC(=O)C[C@@H]2C=C[C@H](NC(=O)C3CC3)[C@H](CO)O2)c1,i
Cc1ccc(S(=O)(=O)Nc2ccc3c(c2)C(=O)N([C@@H](C)CO)C[C@H](C)[C@H](CN(C)S(=O)(=O)c2ccc(C)cc2)O3)cc1,i
CC(C)C(=O)Nc1ccc2c(c1)C(=O)N(C)[C@H]1CC[C@@H](CC(=O)O)O[C@@H]1CO2,i
CS(=O)(=O)N1[C@H](CO)[C@@H](c2ccc(C#CC3CC3)cc2)[C@@H]1C#N,i
C[C@@H]1CN([C@@H](C)CO)C(=O)Cc2cc(NC(=O)CCCCCC(=O)Nc3ccccc3N)ccc2O[C@H]1CN(C)S(C)(=O)=O,i
CO[C@H]1CN(C)C(=O)c2cc(NC(=O)C3CC3)ccc2OC[C@@H](C)N(Cc2cncnc2)C[C@@H]1C,i
O=C(Nc1ccc2c(c1)[C@@H]1C[C@H](CC(=O)N3CCCCC3)O[C@@H](CO)[C@@H]1O2)c1cccnc1,i
C[C@@H]1CCCCO[C@H](CN(C)S(=O)(=O)c2ccc(Cl)cc2)[C@H](C)CN([C@H](C)CO)C(=O)c2cc(N(C)C)ccc2O1,i
O=C(C[C@@H]1CC[C@@H]2NC[C@@H](O)COC[C@H]2O1)NCCc1ccncc1,i
COc1ccc(S(=O)(=O)N(C)C[C@H]2Oc3ccc(NC(=O)CCCN(C)C)cc3CC(=O)N([C@@H](C)CO)C[C@@H]2C)cc1,i
C[C@@H]1CN([C@H](C)CO)C(=O)c2cc(NS(=O)(=O)c3ccc(F)cc3)ccc2O[C@@H](C)CCCCO[C@@H]1CN(C)Cc1ccc(C(=O)O)cc1,i
Cc1noc(C)c1NC(=O)N(C)C[C@H]1OCCCC[C@@H](C)Oc2ccc(NS(=O)(=O)c3ccc(F)cc3)cc2C(=O)N([C@H](C)CO)C[C@H]1C,i
C[C@@H]1CN([C@H](C)CO)C(=O)c2ccccc2-c2ccccc2CO[C@@H]1CN(C)Cc1ccc(C(=O)O)cc1,i
CC(C)C#Cc1ccc2c(c1)O[C@H](CN(C)C(=O)c1ccncc1)[C@@H](C)CN([C@@H](C)CO)S2(=O)=O,i
CO[C@H]1CC[C@H]2CCOc3c(C#N)cccc3C(=O)N(C)CCCC(=O)N(C)C[C@@H]1O2,i
Cc1ccccc1-c1cnc2c(c1)C(=O)N([C@H](C)CO)C[C@H](C)[C@@H](CN(C)C(=O)c1ccccc1)O2,i
CO[C@@H]1CN(C)C(=O)c2ccc(NC(=O)C3CC3)cc2OC[C@H](C)N(Cc2cccnc2)C[C@H]1C,i
C[C@@H]1CN([C@H](C)CO)C(=O)c2cc(NC(=O)CCC(F)(F)F)ccc2O[C@@H]1CN(C)S(=O)(=O)c1cccs1,i
COc1ccc(S(=O)(=O)N(C)C[C@H]2Oc3c(NC(=O)Nc4ccc(C(F)(F)F)cc4)cccc3C(=O)N([C@H](C)CO)C[C@H]2C)cc1,i
C/C=C/c1ccc2c(c1)O[C@H](CN(C)C(=O)c1ccccc1F)[C@H](C)CN([C@H](C)CO)S2(=O)=O,i
O=C(Cc1ccccc1)N1CC[C@@H]2[C@H]1c1cc(Br)ccc1N[C@@H]2CO,i
Cc1cc(N2CCN(CC(C)(C)O)C[C@@H]2C)ccc1N1CCN(CC(C)(C)O)[C@@H](C)C1,i
Cc1ccccc1S(=O)(=O)NCC[C@H]1CC[C@@H](NC(=O)Nc2cccc(F)c2)[C@H](CO)O1,i
Cc1noc(C)c1S(=O)(=O)Nc1ccc2c(c1)C(=O)N([C@@H](C)CO)C[C@@H](C)[C@H](CN(C)S(=O)(=O)c1cccs1)OCCCC[C@@H](C)O2,i
C[C@@H](NC(=O)C[C@H]1CC[C@@H](NC(=O)C2CC2)[C@H](CO)O1)c1ccccc1,i
C[C@@H]1CCCCO[C@H](CN(C)Cc2ccc(C(=O)O)cc2)[C@@H](C)CN([C@H](C)CO)C(=O)c2cc(NC(=O)Cc3ccccc3)ccc2O1,i
Cc1noc(C)c1NC(=O)Nc1ccc2c(c1)C(=O)N([C@@H](C)CO)C[C@@H](C)[C@H](CN(C)C(=O)Nc1ccc3c(c1)OCO3)O2,i
CCCNC(=O)N(C)C[C@@H]1Oc2ncc(-c3cccc(C#N)c3)cc2C(=O)N([C@@H](C)CO)C[C@@H]1C,i
CCS(=O)(=O)Nc1ccc2c(c1)C(=O)N(C)[C@@H]1CC[C@@H](CC(=O)N[C@@H]3CCN(Cc4ccccc4)C3)O[C@H]1CO2,i
